Screens from PubChem.
RGS16-Gao HTS – modulates binding between human RGS16 and Galphao | AID 1441 | 220,000 compounds, 0.38% hits | binding response (% of control), % at 10 µM | bead-based flow cytometry RGS16-Galphao binding, fluorescence; actives lie on both sides;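 active = below 25% or above 175%, edge rows of some plates excepted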;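 also: Galphao activated by GDP with aluminum fluoride before binding; 100% = wells without compound and 0% = beads without RGS; some results beyond the cut were filed as inactive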
Target sequence (O15492 whole entry, looked up): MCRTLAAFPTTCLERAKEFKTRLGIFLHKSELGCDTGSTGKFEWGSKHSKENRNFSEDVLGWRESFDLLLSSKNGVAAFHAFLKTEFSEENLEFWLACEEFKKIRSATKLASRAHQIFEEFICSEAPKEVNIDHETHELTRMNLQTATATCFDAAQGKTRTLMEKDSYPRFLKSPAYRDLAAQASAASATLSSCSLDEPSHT
Target sequence (P09471 whole entry, looked up): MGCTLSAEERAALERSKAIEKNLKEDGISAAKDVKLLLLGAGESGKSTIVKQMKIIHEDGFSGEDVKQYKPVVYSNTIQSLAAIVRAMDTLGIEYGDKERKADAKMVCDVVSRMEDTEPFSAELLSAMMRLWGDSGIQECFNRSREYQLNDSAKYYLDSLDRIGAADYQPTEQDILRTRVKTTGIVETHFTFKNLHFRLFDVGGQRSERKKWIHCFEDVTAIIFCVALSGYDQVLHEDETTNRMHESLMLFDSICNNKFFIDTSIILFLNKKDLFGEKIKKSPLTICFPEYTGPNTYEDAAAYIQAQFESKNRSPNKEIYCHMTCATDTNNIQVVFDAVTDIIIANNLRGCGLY
GALR2 ag – activates the human galanin receptor 2; O43603; GALR2-expressing cells, agonist activation read-out; activation, %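 (tested at 5 µM)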; 140,000 compounds, 0.48% hits;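 active = above mean plus 3 SD of all compounds, about 5% in these data, not always enough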;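 also: 0% = vehicle buffer wells and 100% = reference agonist at full effect; tested in CHO reporter cells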
Target sequence (O43603 whole entry, looked up): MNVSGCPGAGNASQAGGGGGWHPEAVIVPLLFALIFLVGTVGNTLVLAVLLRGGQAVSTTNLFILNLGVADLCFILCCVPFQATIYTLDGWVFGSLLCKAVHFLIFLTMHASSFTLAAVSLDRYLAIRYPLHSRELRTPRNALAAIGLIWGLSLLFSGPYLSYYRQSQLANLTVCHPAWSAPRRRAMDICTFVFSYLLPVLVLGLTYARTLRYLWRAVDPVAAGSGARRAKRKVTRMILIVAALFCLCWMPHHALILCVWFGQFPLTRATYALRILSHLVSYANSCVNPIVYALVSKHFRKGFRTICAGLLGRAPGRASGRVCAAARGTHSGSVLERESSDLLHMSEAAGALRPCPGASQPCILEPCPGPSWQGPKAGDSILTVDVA
HSV augment – increases HSV replication in cells; 220,000 compounds, 0.005% hits; maximum fold increase; HSV replication augmentation in cells, fold increase; AID 1956;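 active = peak rise of 1.5-fold or more in the series; inconclusive = self-fluorescent or not available for retest; tested in PC3 cells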;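 also: first round at 10 µM; read as green reporter fluorescence; hits show the peak of a series up to 25 µM; 1 = signal of infected wells without compound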
INS promoter inh – TRM-6 insulin promoter activity inhibition | TRM-6 cells (human fetal islet line), insulin promoter-eGFP reporter, imaging; reporter expression induced with tamoxifen | inhibition, % at 2 µM | 130,000 compounds, 0.9% hits;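 active = inhibition above the mean plus 3 SD, with well images judged a real hit on visual review, cut at about 60% in these data, passing the limit was not always enough; inconclusive = inhibition over the cutoff but images rejected on review; inactive = inhibition not above the cutoff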
PKD1 kinase inh – blocks activity of human protein kinase D1. PKD1 kinase fluorescence polarization assay. Q15139. 200,000 compounds, 0.056% hits. inhibition, %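 (about 10 µM by stock and volumes)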. AID 797;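 active = inhibition of 50% or more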;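 also: controls were vehicle for no effect and a reference inhibitor for full effect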
INS promoter inh cell count – second read-out of INS promoter inh, no call of its own (marks repeat the call); normalized cell count, %; measured here: cell count, toxicity; reference of the scale not given here;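 cells exposed to compound for 48 h; stained nuclei by imaging scaled within each plate; lower means fewer cells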
HSV augment primary fold – also measured in HSV augment; calls as there; fold increase; compound at 10 µM; measured here: primary screen fold increase 10 uM; tested in PC3 cells;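 GFP signal in the first replicate; 1 = infected wells without compound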
Starred values were filed as active, the others as inactive; i = inactive; ? = inconclusive; . = no result given.

nr	smiles	GALR2 ag	HSV augment	HSV augment primary fold	INS promoter inh cell count	INS promoter inh	RGS16-Gao HTS	PKD1 kinase inh
1	CC(=O)c1c(C(C)=O)c(C)n(Cc2ccc(Cl)cc2)c1C	-0.7	i	1	77	-14	103	-4
2	O=C(CCc1ccccc1)Nc1ncn[nH]1	-3.1	i	0.98	108	-36	94	-9
3	COc1ccc(CSC(=N)N)cc1[N+](=O)[O-]	-0.7	i	1	71	-10	104	-10
4	CCOc1ccc(NC(N)=O)cc1	-0.1	i	0.88	143	-50	96	3
5	CCOC(=O)c1c(CC(C)C)csc1/N=C/C1C(=O)CC(C)(C)CC1=O	.	i	1.4	.	.	103	8
6	Cc1cccnc1Nc1nc(-c2ccc(O)cc2)cs1	-0.2	i	0.83	149	-91	120	4
7	COc1ccc(/C=C2/N=C(SC3CCOC3=O)N(c3cccc(OC)c3)C2=O)cc1 (centres undefined)	-1.2	i	1	.	.	103	5
8	Cc1ccccc1-c1nc2cc(Cl)ccc2o1	-0.2	i	0.9	131	-26	103	-10
9	Cc1cccc(OCC(=O)O/N=C(\N)c2ccccn2)c1	-0.6	i	1	114	-38	99	13
10	C/C(=N\NC(=O)c1ccccc1-n1cccc1)C1CC1	-0.3	i	1.1	90	4	55	-5
11	O=C(CSc1nnnn1C1CCCCC1)NCc1ccco1	0.6	i	0.92	59	36	69	-5
12	CCN(c1cccc(C)c1)S(=O)(=O)c1ccc(OC)c([N+](=O)[O-])c1	.	i	1.1	.	.	101	-5
13	CNC(=S)N(Cc1cccs1)Cc1cc2cc(OC)ccc2[nH]c1=O	0.3	i	1.1	75	11	126	0
14	COc1ccc(C(=O)NCC(=O)OCC(=O)N2N=C(c3ccc(Cl)cc3)CC2c2ccco2)cc1OC (centres undefined)	.	i	0.93	110	0	99	0
15	Cc1nc(SCC(=O)O)c(C#N)c(-c2ccco2)c1C(=O)N(C)C	.	i	1	.	.	101	.
16	Cc1ccc(C(=O)NCc2occc2C(=O)O)o1	-0.8	i	0.79	147	36	98	-10
17	O=C(CC1S/C(=N/N=C/C=C/c2ccccc2)NC1=O)Nc1ccc(Cl)c(Cl)c1 (centres undefined)	-0.8	i	0.96	.	.	58	2
18	COc1ccc(OC)c(S(=O)(=O)Nc2ccc3c(c2)C(=O)OC3)c1	.	i	0.93	.	.	102	.
19	CCOC(=O)CN1NC2(CCCCCC2)NC1=S	.	i	0.99	.	.	108	.
20	COc1ccc(N(Cc2ccco2)C(=O)c2ccccc2F)cc1OC	0.2	i	0.94	.	.	92	-4
21	N#C/C(=C\c1ccc2c(c1)OCCO2)C(=O)NC1CCCCC1	-0.5	i	1.1	.	.	106	5
22	CCCn1nnnc1NCc1c(F)cccc1Cl	.	i	0.97	.	.	105	-7
23	COCc1nnc(NC(=O)C(C)C)s1	136*	i	0.83	131	41	128	11
24	O=C(NCCN1CCCC1)c1ccc(CS(=O)(=O)c2c(Cl)cccc2Cl)o1	-4.5	i	1.1	.	.	96	4
25	Cc1cccc(N=Nc2c(C)c(C#N)c(O)[nH]c2=O)c1	.	?	.	.	.	104	-1

New compounds follow.
nr	smiles	GALR2 ag	HSV augment	HSV augment primary fold	INS promoter inh cell count	INS promoter inh	RGS16-Gao HTS	PKD1 kinase inh
26	Cc1ccc(CCNC(=O)C2CC(c3ccc(C(F)(F)F)cc3)=NO2)cc1 (centres undefined)	.	i	0.8	.	.	98	.
27	N/C(=N\OC(=O)c1ccc(Br)cc1)c1ccncc1	.	i	0.96	.	.	98	-4
28	Cc1cc(/C=C(\C#N)C(=O)O)c(C)n1CCC(C)C	.	i	1	.	.	102	.
29	CC(=O)Nc1cccc(NC(C)=C(C#N)C#N)c1	-1.1	i	1.1	68	18	99	-10
30	O=S(=O)(c1ccccc1)N1C2CCC1CC(O)(c1cccnc1)C2 (centres undefined)	-0.2	i	1	.	.	99	6
31	O=C(COC(=O)c1ccc2ccccc2n1)NCc1ccccc1	.	i	1.1	.	.	104	1
32	O=C(NCC(=O)N(Cc1ccccc1)C(C(=O)NC1CCCC1)c1cccnc1)c1ccco1 (centres undefined)	-2.3	i	1.1	89	-262	98	5
33	O=C(CSc1nnc(CNC(=O)c2ccccc2F)o1)NCCc1ccccc1	-0.6	i	1.3	95	11	93	0
34	Cc1ccn2c(=O)cc(C)nc2c1	.	i	0.93	107	50	99	3
35	CN(C(=O)COC(=O)c1cc(-c2ccco2)nc2ccccc12)C1CCS(=O)(=O)C1 (centres undefined)	.	i	1.2	.	.	90	.
36	CC(C)(C)NC(=O)C(c1ccc(F)cc1)N(Cc1ccccc1Cl)C(=O)c1ccn[nH]1 (centres undefined)	.	i	0.86	102	-150	106	1
37	COc1ccc(OC)c(/C=N/NC(=O)c2ccc(N(C)S(=O)(=O)c3ccccc3)cc2)c1	.	i	0.93	145	27	109	-6
38	CCCN=C1CC(C)(C)CC(=O)/C1=C(/O)CCC	.	i	0.99	.	.	95	-3
39	Cc1cc(C(=O)CSc2nc(N)cc(N)n2)c(C)n1C1CC1	.	i	0.92	47	0	99	1
40	CN(C)c1oc(-c2ccccc2)nc1C#N	-0.2	i	1	113	45	106	-7
41	CCc1ccc(NC(=O)C(=S)NC2CCCCC2)cc1	.	i	0.98	.	.	92	-2
42	CC(=O)c1cc(F)c(N2CCN(C(=O)Cc3ccccc3)CC2)cc1C	0.8	i	1.1	89	-19	93	-3
43	C=C(C)Cc1c(C)c(C#N)c2nc3ccccc3n2c1NCCCN(C)C	.	i	0.91	.	.	98	.
44	O=C(Nc1ccc(C(=O)N2CCOCC2)cc1)c1cc(-c2cccnc2)nc2ccc(Br)cc12	.	i	0.65	.	.	103	4
45	O=C(CSc1nccc(-c2cccs2)n1)Nc1cccc(Cl)c1	.	i	0.98	.	.	95	.
46	COc1cccc(C(=O)Nc2ccc(S(=O)(=O)Nc3cc(C)nc(C)n3)cc2)c1	.	i	0.94	.	.	107	3
47	CN(C)c1ccc(/C=C/c2cccc[n+]2[O-])cc1	.	i	1.2	.	.	100	.
48	Cc1cccc(S(=O)(=O)NCCc2ccccc2)c1	.	i	0.95	.	.	91	1
49	CCCCNC(=O)CSc1nc2ccccc2n1S(=O)(=O)c1ccc(Br)cc1	-1.4	i	0.88	79	6	100	-5
50	CC(=O)Nc1ccc(NC(=O)CSc2ccc3nnc(CCNC(=O)c4ccccc4)n3n2)cc1	.	i	0.85	64	0	89	-7

Remaining list, next part.
nr	smiles	GALR2 ag	HSV augment	HSV augment primary fold	INS promoter inh cell count	INS promoter inh	RGS16-Gao HTS	PKD1 kinase inh
51	CCN(CC)Cc1c(C(=O)OC)nnn1-c1nonc1N	-1.8	i	0.8	14*	72*	100	-6
52	Cc1c(C(=O)N/N=C/c2ccncc2)no[n+]1[O-]	.	i	1	.	.	103	3
53	Cc1cc(C)n2cc(CSc3nnc(-c4ccccc4)o3)nc2n1	-1.8	i	0.97	128	-19	100	-3
54	O=C(Cn1ncc2c(=O)oc3ccccc3c21)N1CCCN(Cc2ccccc2F)C1	-1.1	i	1.1	147	-29	105	9
55	O=C(NCc1ccccc1)c1cccc(S(=O)(=O)N2CCOCC2)c1	-2.3	i	0.98	71	29	102	-11
56	CCC(c1nnnn1C(C)(C)CC)N(CCCO)Cc1cc2cc(C)cc(C)c2[nH]c1=O (centres undefined)	0.5	i	0.91	90	-42	98	7
57	COc1ccc2[nH]c(C(=O)O)c(CCC(=O)O)c2c1	-1.5	i	1	49	-295	104	4
58	Cc1nn(C)c(=O)n1-c1ccccc1	.	i	0.98	.	.	102	-3
59	CCC(c1nnnn1Cc1cccs1)N1CCN(c2nc3ccccc3s2)CC1 (centres undefined)	-1.6	i	0.8	.	.	104	-9
60	Cc1ccc(Nc2ncc3c(n2)CC(c2ccco2)CC3=O)c(C)c1 (centres undefined)	0.4	i	0.97	125	6	97	1
61	O=C(CN1CCN(C(=O)c2cccc(F)c2)CC1)Nc1ccccc1F	-1.7	i	1	122	21	101	2
62	O=C(CCn1c(=O)oc2ccccc21)NCCC1=CCCCC1	.	i	0.93	.	.	100	.
63	COc1cccc(NC(=O)CSc2ncnc3c2oc2ccccc23)c1	-1.9	i	0.78	.	.	67	-5
64	O=C1c2ccccc2-c2ccc(C(=O)N3CCCCC3)cc21	.	i	0.93	164	-38	100	-3
65	CCCCC(CC)CN1C(=O)/C(=C/c2ccncc2)SC1=S (centres undefined)	-0.7	i	0.76	.	.	107	-4
66	CCc1ccc(C(=O)CN2CCSC2=N)cc1	-1.3	i	0.92	204	40	106	-3
67	CC(C)=CCCC1=CCC(/C(C)=N/NC(N)=O)CC1 (centres undefined)	-1.2	i	1.1	117	-30	79	-2
68	COc1ccc(CNC(=S)Nc2cc(C)ccc2C)cc1	-1.9	i	0.99	118	-19	135	2
69	CCOC(=O)C1(CCCc2ccccc2)CCN(C(=O)C2CCCO2)CC1 (centres undefined)	.	i	1.1	.	.	99	-11
70	O=c1[nH]cnc2scc(C3COc4ccccc4O3)c12 (centres undefined)	-0.7	i	0.86	67	-38	108	-4
71	Cc1nc(-c2ccc(Cl)cc2)sc1C(=O)NN	.	i	0.75	.	.	98	.
72	CSc1ccccc1-n1nnnc1SCC(=O)NCc1cccs1	-2.9	i	1.2	.	.	66	-5
73	O=C(Nc1ccc2c(c1)Cc1ccccc1-2)c1ccco1	-1.2	i	0.81	95	-14	105	-6
74	CC(C)(C)NCc1cccn1-c1sc2c(c1C#N)CCCC2	-1.1	i	0.85	110	9	104	3
75	O=C(NCc1ccco1)C1CCCN1S(=O)(=O)c1ccccc1C(F)(F)F (centres undefined)	.	i	0.92	.	.	103	.

The list continues:
nr	smiles	GALR2 ag	HSV augment	HSV augment primary fold	INS promoter inh cell count	INS promoter inh	RGS16-Gao HTS	PKD1 kinase inh
76	O=C(COC(=O)C1CC(=O)N(c2ccccc2)C1)c1ccccc1 (centres undefined)	-3.0	i	0.87	.	.	88	-6
77	Cc1ccccc1OCC(=O)N/N=C1\CCOc2c(C)cccc21	-2.9	i	0.7	120	12	78	-10
78	O=C1CCCC2=C1C(c1cn(-c3ccccc3)nc1-c1cccs1)c1c([nH]c(=O)[nH]c1=O)N2 (centres undefined)	-1.0	i	0.91	96	-18	102	0
79	CCCN=C1NC(=O)C(CC(=O)NCCc2ccccc2)S1 (centres undefined)	.	i	0.98	.	.	117	0
80	COc1ccc(/C=C(/NC(=O)c2ccc(C)cc2)c2nc3ccccc3[nH]2)cc1OC	-2.9	i	0.87	69	-22	106	0
81	CC1CCCN(C(=O)c2cc(N3C(=O)C4C5CCC(C5)C4C3=O)ccc2Cl)C1 (centres undefined)	.	i	0.89	137	-25	97	6
82	Cc1nc2ccc(F)cc2cc1C(=O)NCc1ccco1	-1.0	i	0.87	47	41	101	-7
83	COc1ccc(OC)c(Nc2nc(-c3cccc([N+](=O)[O-])c3)nc3ccccc23)c1	-3.8	i	0.73	95	0	106	0

Complete entries, quoted from the list. Order of values: GALR2 ag, HSV augment, HSV augment primary fold, INS promoter inh cell count, INS promoter inh, RGS16-Gao HTS, PKD1 kinase inh
COc1ccc(OC)c(Nc2nc(-c3cccc([N+](=O)[O-])c3)nc3ccccc23)c1 is listed with -3.8, i, 0.73, 95, 0, 106, 0
Cc1nc2ccc(F)cc2cc1C(=O)NCc1ccco1 is listed with -1.0, i, 0.87, 47, 41, 101, -7
O=C(COC(=O)C1CC(=O)N(c2ccccc2)C1)c1ccccc1 (centres undefined) is listed with -3.0, i, 0.87, ., ., 88, -6
